From PubChem
Marburg entry inh – blocks Marburg virus binding to or entry into cells | AID 540276 | Potency, µM (top dose mostly 37.8 µM), for the others: top-dose activity change, negative = inhibition, hits mostly inhibitors | hit rate 1.8% among 300,000 | Marburg virus pseudotyped entry inhibition, cell reporter; control for the full effect not named in the record; about a third of the inactives were read at about 46 µM; active = well fitted inhibition curve with a large enough effect; inconclusive = small, poorly fitted or top-dose-only effect, or effect the other way; inactive = flat fitted curve, though single readings scatter; tested in HEK293 cells; about a fifth of its hits are not listed in these tables; further: on the % scale 0 is the no-effect control and ±100 the full control effect; luciferase read-out
StopGo reporter – FMDV 2A StopGo reporter, luciferase signal; hit rate 1.2% among 410,000; human cells with a luciferase reporter of 2A StopGo recoding; control for the full effect not named in the record; Potency, µM (series often up to 57.9 µM), inactives show at the highest dose signal change, negative = less light; active = well fitted falling curve with a large enough effect; inconclusive = small, poorly fitted or top-dose-only effect; inactive = no such curve, though single readings can be large or run the other way; tested in HEK293T cells; further: on the % scale 0 is the no-effect control and ±100 the full control effect; nearly all actives have a fitted effect of over 45% in size; luciferase light after 4 h
NS1 function inh – blocks influenza NS1 protein function; S. cerevisiae slowed by influenza A NS1, growth recovery by OD600; Potency, µM (top dose mostly 46.1 µM), inactives show at the top dose activity, positive = more growth; hit rate 0.4% among 270,000; AID 2326; further: actives are rising curves; nearly all actives have a fitted effect of over 50% in size
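Read-out: OD600 growth recovery of NS1-expressing budding yeast. Cells grown overnight at 30C in -URA glucose medium, washed, resuspended and diluted 1:100 in 2% galactose assay medium, pH 6.0. Same strain lacking NS1 served as positive control.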
LASV entry inh – inhibitors of Lassa virus binding or cell entry | Lassa virus pseudotype entry inhibition, cell reporter; control for the full effect not named in the record | Potency, µM (titrated, usually from 37.9 µM), for inactives: at the highest dose activity change, negative = inhibition, usual class: inhibitors | hit rate 1.2% among 300,000 | AID 540256; active means well fitted inhibition curve with a large enough effect; inconclusive means small, poorly fitted or top-dose-only effect, or effect the other way; inactive means flat fitted curve, though single readings scatter; tested in HEK293 cells; further: on the % scale 0 is the no-effect control and ±100 the full control effect; nearly all actives have a fitted effect of over 50% in size; luciferase read-out
Cruzain inh Det – blocks cruzain activity in presence of Triton detergent; hit rate 0.43% among 200,000; Potency, µM, for inactives: max response, negative = inhibition, hits mostly inhibitors; purified cruzain, Z-FR-AMC fluorescence, 0.01% Triton; active means well fitted curve in the direction sought with a large enough effect; inconclusive means small, poorly fitted or top-dose-only effect, or another doubt; inactive means no such curve, though single readings can be large; an effect the other way counts as inactive or inconclusive;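 further: plate controls were neutral wells for no effect and buffer without enzyme for full effect; nearly all actives have a fitted effect of over 40% in size; top concentration of the series not given in the record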
Target sequence (P25779 123-467 limits assumed): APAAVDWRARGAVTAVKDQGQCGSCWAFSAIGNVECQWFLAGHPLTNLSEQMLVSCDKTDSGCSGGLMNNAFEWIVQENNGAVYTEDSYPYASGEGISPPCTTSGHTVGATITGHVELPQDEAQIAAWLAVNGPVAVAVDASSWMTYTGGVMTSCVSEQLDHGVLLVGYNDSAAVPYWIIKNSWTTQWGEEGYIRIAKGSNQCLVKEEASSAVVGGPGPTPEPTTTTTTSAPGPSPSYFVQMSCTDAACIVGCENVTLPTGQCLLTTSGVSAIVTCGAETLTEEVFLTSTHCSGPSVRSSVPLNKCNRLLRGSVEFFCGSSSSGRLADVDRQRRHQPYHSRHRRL
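Enzyme 1.5 nM, Z-FR-AMC 2 uM, NaOAc 100 mM pH 5.5, DTT 5 mM, Triton X-100 0.01%; 15 min RT compound preincubation; kinetic ex360/em450, 60 s delta.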
RE007 growth inh – less growth of the S. pombe RE007 Vpr strain; S. pombe RE007 Vpr strain, BacTiter-Glo ATP luminescence, 24 h; control for the full effect not named in the record; hit rate 0.21% among 360,000; Potency, µM (top dose mostly 92.2 µM), for inactives: at the top dose activity change, negative = less growth; active = well fitted falling curve with a large enough effect; inconclusive = small, poorly fitted or top-dose-only effect; inactive = no such curve, though single readings can be large or run the other way;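 further: on the % scale 0 is the no-effect control and ±100 the full control effect; nearly all actives have a fitted effect of over 50% in size; the assay follows cell death caused by Vpr and the record does not say whether a fall means rescue or toxicity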
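Fission yeast RE007 carrying one integrated HIV-1 vpr copy, seeded at OD 0.01 in PMG+AL medium with 23 nL pinned compound. Grown 24 h at 30 degrees; viability read by BacTiter-Glo luminescence after 5 min.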
SARS PLpro yeast – inhibitors of SARS-CoV papain-like protease in yeast. S. cerevisiae expressing SARS-CoV PLpro, growth rescue; control for the full effect not named in the record. Potency, µM (doses to about 32.9 µM), for the others: top-dose activity, positive = growth rescue. hit rate 0.19% among 330,000; further: 0% is about no effect; nearly all actives have a fitted effect of over 55% in size; growth read by luminescence after 48 h
Cruzain inh noDet – inhibitors of Trypanosoma cruzi cruzain without detergent. purified cruzain, Z-FR-AMC fluorescence, no detergent. hit rate 2.3% among 200,000. Potency, µM, without a hit: max response, negative = inhibition, hits mostly inhibitors. AID 1476; active means well fitted curve in the direction sought with a large enough effect; inconclusive means small, poorly fitted or top-dose-only effect, or another doubt; inactive means no such curve, though single readings can be large; an effect the other way counts as inactive or inconclusive;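 further: plate controls were enzyme without inhibitor for no effect and buffer without enzyme for full effect; nearly all actives have a fitted effect of over 40% in size; top concentration of the series not given in the record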
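Purified cruzain at 1.5 nM, pre-incubated 15 min with compound at room temperature in 100 mM sodium acetate pH 5.5, 5 mM DTT, 0.00005% Triton X-100. Reaction started with 2 uM Z-FR-AMC; AMC fluorescence increase over 60 s gives rate.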
* hit, by the source's call; ? = inconclusive; . = not tested or not shown; & = joins results of further samples; [ ] = remark or other dose. Unless noted, the call rests on the fitted dose curve; in most records, active means well fitted rising curve with a large enough effect; inconclusive means small, poorly fitted or top-dose-only effect; inactive means no such curve, though single readings can be large or run the other way. Potency means the concentration at half of the fitted maximal effect.

SMILES	Marburg entry inh	StopGo reporter	NS1 function inh	LASV entry inh	Cruzain inh Det	RE007 growth inh	SARS PLpro yeast	Cruzain inh noDet
COC(=O)C1=C(c2cccc(OCc3ccccc3)c2)C[C@@H]2CC[C@H]1N2C(=O)NCc1cccc(C(F)(F)F)c1	9%	18%	.	.	.	9%	-3%	.
CCn1cc(CNC(=O)/C=C/c2ccc([N+](=O)[O-])cc2)c(C)n1	4%	-27%	14%	-1%	4.2%	0%	7%	-9%
CCC(=O)N1c2ccc(S(=O)(=O)CCC(=O)NCCC3=CCCCC3)cc2CC1C (stereo not given)	-12%	-23%	-5%	-29%	0.6%	6%	-1%	-11%
COc1cc(C)c(-c2nc(CN3C[C@@H]4C[C@@H](C3)c3cccc(=O)n3C4)c(C)o2)cc1C	?	-21%	-4%	-25%	.	3%	-1%	.
CN1C(=O)CC(n2c(CO)nc3ccccc32)C1=O (stereo not given)	2%[46.1 µM]	1%	5%	?	-0.1%	18%	3%	-14%
COc1ccccc1/C=C/C(=O)Nc1nc(N)n(-c2ccccc2)n1	.	3%	1%	.	.	9%	1%	.
CC(=O)c1ccc(N2CCN(C(=O)c3ccc(Cl)c(S(=O)(=O)NC4CC4)c3)CC2)c(F)c1	7%	2%	.	-5%	.	-18%	-5%	.
Cc1cc(=O)c2cc(C(=O)Nc3ccccc3C)ccc2[nH]1	-29%[46.1 µM]	-5%	.	-1%[46.1 µM]	-12%	.	.	23%
CC1=NN(c2ccc(Cl)c(C(=O)O)c2)C(=O)C1	-19%	-2%	13%	11%	-4.0%	1%	6%	9%
N#C/C(=C1/C(=O)Nc2ccc(Br)cc21)c1ccccn1	9%	-30%	10%	-16%	.	1%	-4%	.
Cc1cccc(C2c3[nH]c4ccccc4c3CCN2Cc2cnn(-c3ccc(F)cc3)c2)n1 (stereo not given)	-28%[46.1 µM]	-4%	-2%	8%	.	-1%	-1%	.
CC(=O)Oc1ccc(C(=O)Nc2cc(C)on2)cc1	.	49%[activator]	-13%	.	.	15%	1%	.
COc1ccccc1CNC(=O)Cc1c[nH]c2ccccc12	7%[46.1 µM]	2%	-3%	-20%	.	2%	0%	.
CCOC(=O)C1C(=O)C=C(c2ccc(Br)cc2)CC1c1ccco1 (stereo not given)	?	?	-34%	15µM*	?	-5%	-19%	-16%
COc1ccc(/C=C/C(=O)c2ccccc2)cc1COc1ccc(F)cc1	?	?	20%	-36%	0.2%	-1%	0%	-13%
NC(=O)CSc1nc2ccccc2n1-c1ccccc1	22%	.	10%	10%	-0.3%	-15%	0%	3%
CC(=O)Oc1ccccc1-n1c(C)nc(=O)c(-c2ccccc2)c1C	-8%[46.1 µM]	-12%	-4%	-20%	.	-5%	0%	.
COc1ccccc1CNC(=S)NCCc1ccccc1	-1%[46.1 µM]	75%[activator]	-22%	16%	-7.2%	-5%	?	-3%
CCOC(=O)C1CCN(c2c(Nc3ccc(C)c(C)c3)c(=O)c2=O)CC1	.	-2%	-7%	.	.	-10%	-2%	.
CCN1/C(=C2\C(=O)N(C)C(=S)N2C)C=Cc2ccccc21	?	?	-11%	-3%	-6.4%	-24%	-30%	1%
O=C(Cn1cnc2ccccc2c1=O)Nc1ccc(S(=O)(=O)N2CCOCC2)cc1	-1%[46.1 µM]	-11%	.	?	.	-1%	0%	.
O=C(COc1ccccc1)NCc1nnc(SCC(=O)Nc2nccs2)n1-c1ccccc1	-1%	0%	10%	.	2.0%	-6%	-4%	9%
NC(=S)NC1CC2CC1C1C=CCC21 (stereo not given)	-17%	11%	0%	-2%	.	5%	-1%	.
Cc1ccc(S(=O)(=O)Nc2ccc(S(=O)(=O)Nc3cc(C)nc(C)n3)cc2)cc1	.	84%[activator]	-6%	.	.	6%	-1%	.
COc1ccc(S(=O)(=O)/C(C#N)=C/Nc2cccc(F)c2)cc1	.	12%	3%	.	.	3%	0%	.
Cc1c(Cl)cccc1NC(=O)NNC(=O)CCc1ccccc1	.	-9%	7%	.	.	13%	-1%	.
CCOc1ccc(S(=O)(=O)NN2Cc3ccccc3C2=N)cc1	.	-9%	3%	.	.	-3%	2%	.
CNC1(c2ccccc2Cl)CCCCC1=O (stereo not given)	.	0%	.	.	-1.7%	-11%	.	6%
COc1ccc(OC(C)C(=O)NCc2cccnc2)cc1 (stereo not given)	-13%[46.1 µM]	2%	7%	-7%	2.6%	0%	0%	0%
COc1ccc(NC(=O)COc2ccccc2)c(OC)c1	10%[46.1 µM]	41%[activator]	-3%	29%	3.7%	?	-1%	-7%
CCOc1ccc(CCNC(=O)c2ccc(CSCc3ccccc3C)o2)cc1OCC	.	0%	.	2%[46.1 µM]	1.6%	.	.	?
O=C(COC(=O)CC1CC2CCC1C2)Nc1cc([N+](=O)[O-])ccc1F (stereo not given)	-1%[46.1 µM]	-3%	.	16%[46.1 µM]	.	14%	-9%	.
COc1ccc(Cl)cc1NC(=O)NC(C)C(C)(C)C (stereo not given)	?	3%	6%	-9%[46.1 µM]	.	7%	-1%	.
Cc1ccc(C(=O)N2CCN(c3ccc(NC(=O)c4ccc(Br)o4)cc3)CC2)cc1	?	?	19%	?	-4.4%	12%	-7%	-2%
N/C(=N\OC(=O)c1cccc(Cl)c1)c1ccncc1	.	36%[activator]	4%	.	.	-15%	-2%	.
CCOC(=O)c1sc(NC(=O)C(OC(C)=O)c2ccccc2)nc1C (stereo not given)	?	8%	-7%	13%	-17%	7%	-15%	-2%
COc1ccc(OC)c(/C(O)=C/C(=O)C(=O)Nc2cc(C)ccc2OC)c1	-3%	?	2%	3%	-2.8%	13%	4%	2%
O=c1c2cnn(-c3ccccc3)c2nnn1Cc1ccccn1	25%[46.1 µM]	-21%	-7%	-2%	1.1%	11%	-3%	-10%
COc1ccc(/C=N/NC(=O)c2cc(C(C)(C)C)[nH]n2)cc1COc1ccc(F)cc1F	?	?	.	?	.	4%	2%	.
COc1cccc(OCc2nc3ccccc3n2C)c1	?	7%	.	32%[46.1 µM]	-3.0%	.	.	-4%
O=C(COC(=O)CNC(=O)C12CC3CC(CC(C3)C1)C2)Nc1ccccc1	12%	8%	-1%	9%	-4.6%	7%	.	15%
N/C(=N\OC(=O)CC(c1ccccc1)c1ccccc1)c1cccnc1	.	-12%	-7%	.	.	19%	-1%	.
CC(=O)N1CC=CC1(CC(C)C)C(=O)NCCN1CCOCC1 (stereo not given)	-6%	43%[activator]	-11%	19%	1.3%	5%	-8%	-3%
O=C(COc1ccccc1)c1cn(Cc2ccccc2)c2ccccc12	?	-14%	-2%	4%	-5.6%	32%	-8%	-3%
NS(=O)(=O)c1cc2c(cc1Cl)NC(c1ccccc1OCC(=O)O)NS2(=O)=O (stereo not given)	8%[46.1 µM]	16%	-11%	.	.	4%	-1%	.
Cn1c2c(c(=O)n(C)c1=O)CN(CCCN1CCOCC1)CN2	8%	-27%	-6%	6%	3.7%	-17%	0%	-6%
CSc1ccccc1NC(=O)C(=O)c1c[nH]c2ccccc12	13%[46.1 µM]	-3%	.	0%	.	0%	-2%	.
O=C1C(Cl)=C(NCC2CCCO2)C(=O)N1CCc1ccccc1 (stereo not given)	-13%	33%[activator]	-11%	-5%	-3.0%	9%	-2%	-10%
COc1ccc(N2C(=O)CSC23C(=O)N2c4c(cccc43)C(C)=CC2(C)C)cc1 (stereo not given)	?	?	-9%	?	-4.6%	-2%	-25%	6%
O=C(Oc1ccc(-c2nnco2)cc1)c1ccc(Br)o1	.	-18%	-6%	.	.	-12%	-1%	.
Cc1n(C)c2cc(Cl)ccc2[n+]1Cc1ccccc1	21%[46.1 µM]	-21%	.	5%	.	-1%	0%	.
CC(C)OC(=O)NC(Nc1ccccc1C(=O)O)(C(F)(F)F)C(F)(F)F	.	-11%	8%	.	.	14%	0%	.
CCN1CCCC1CNC(=O)c1cc2c(-c3ccc(Cl)cc3)nn(C)c2s1 (stereo not given)	.	-25%	-22%	.	-12%	0%	-3%	6%
Cc1ccc(NC(=O)N2CCC(N3CCN(Cc4ccccc4)C(=O)C3=O)CC2)cc1Cl	.	3%	.	-1%[46.1 µM]	-0.1%	.	.	13%
Fc1cccc(Cl)c1Cn1nnc(-c2ccc3c(c2)OCO3)n1	23%	57%[activator]	-32%	?	1.0%	-17%	24%	-4%
CCN(CCCCCN(C)C)Cc1cc2ccccc2o1	10µM*	0%	?	?	-1.3%	-2%	-1%	-8%
Cc1ccc(NC(=O)CCc2c(C)nn(-c3ccc(N4CCOCC4)nn3)c2C)cc1F	12%&12%[46.1 µM]	12%&38%	11%	?	-1.9%	-8%	6%	?
COc1cccc(C2CCCN2Cc2nc(-c3cnccn3)no2)c1 (stereo not given)	.	-5%	-2%	.	.	2%	0%	.
COc1ccc(C2/C(=C(/O)c3ccccc3)C(=O)C(=O)N2CCN2CCOCC2)c(OC)c1 (stereo not given)	-1%	28%	6%	0%	-1.4%	5%	1%	4%
O=C(c1cccc(Br)c1)N1CCN(c2cnn(-c3ccccc3)c(=O)c2Cl)CC1	3%[46.1 µM]	-15%	2%	-12%[46.1 µM]	.	1%	0%	.

Next structures follow.
SMILES	Marburg entry inh	StopGo reporter	NS1 function inh	LASV entry inh	Cruzain inh Det	RE007 growth inh	SARS PLpro yeast	Cruzain inh noDet
Cc1ccc(SCCC(=O)NC(C(C)C)C(C)C)cc1	-23%	-9%	1%	-17%	0.7%	-12%	3%	1%
COc1ccccc1NS(=O)(=O)c1cc2c(cc1Cl)NC(=O)CO2	.	-7%	.	-10%[46.1 µM]	-13%	.	.	-5%
COc1cccc(Cn2c(C)c(CNCc3cccc(C)c3)c(C(=O)O)c2C)c1	1%[46.1 µM]	25%	.	?	-2.1%	.	.	?
CC(O)CC(C(=O)NNc1ccccc1)C(=O)NNc1ccccc1 (stereo not given)	?	0%	.	?	.	267%	0%	.
